VDR inhibitor – inhibitors of human vitamin D receptor. VDR-SRC2-3 peptide fluorescence polarization, 2 h. Potency, µM, inactives show max response, negative = inhibition, actives largely listed as inhibitors. actives 0.93% (n = 400,000); active means well fitted inhibition curve with a large enough effect; inconclusive means small, poorly fitted or top-dose-only effect, or another doubt; inactive means no such curve, though single readings can be large or run the other way; further: series mostly up to about 120 µM
Target sequence (P11473 whole entry, looked up): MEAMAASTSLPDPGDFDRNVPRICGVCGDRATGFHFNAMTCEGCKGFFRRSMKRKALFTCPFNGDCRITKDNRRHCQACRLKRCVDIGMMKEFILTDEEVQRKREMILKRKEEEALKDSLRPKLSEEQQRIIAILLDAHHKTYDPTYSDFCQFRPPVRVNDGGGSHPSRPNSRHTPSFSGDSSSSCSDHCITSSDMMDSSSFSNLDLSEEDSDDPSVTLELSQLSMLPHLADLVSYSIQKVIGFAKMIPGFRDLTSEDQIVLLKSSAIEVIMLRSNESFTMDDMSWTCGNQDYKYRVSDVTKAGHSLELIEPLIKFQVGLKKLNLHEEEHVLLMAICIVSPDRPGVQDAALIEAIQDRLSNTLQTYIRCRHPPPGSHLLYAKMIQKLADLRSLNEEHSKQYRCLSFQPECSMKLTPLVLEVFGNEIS
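The screen uses fluorescence polarization to detect compounds that interfere with recruitment of the SRC2-3 coactivator peptide to VDR; plates are read after 2 h at room temperature.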
An asterisk follows results filed as active; ? = inconclusive; & = joins results of further samples. On the % scale 0 is the no-effect control and ±100 the full control effect; potency means the concentration at half of the fitted maximal effect.

SMILES | VDR inhibitor
Cc1nc2ccc3nc(NC(=O)c4ccco4)sc3c2s1 | 8%
CN1CCN(C2=C(Cl)C(=O)N(c3ccc(Cl)cc3)C2=O)CC1 | -2%
Cc1nnc(NC(=O)CCC(=O)NCc2ccco2)s1 | -7%
Cc1nc(SCC(=O)N2CCc3ccccc3C2)c2c(C)c(C)sc2n1 | -1%
Cc1cc(SCC2=NNC(=O)C2)c(Cl)cc1Cl | -1%
Cc1ccccc1Nc1c(-c2cccc(O)c2)nc2ccc(Br)cn12 | -3%
Cc1cc2c(c(=O)o1)C(C(C)C)C(C#N)=C(N)O2 (configuration not stated) | 5%
CCn1nc(C)c(CN2CCCCC2C(=O)Nc2ccc(Oc3cccnc3)cc2)c1C (configuration not stated) | -24%
Fc1ccccc1NC(=S)N1CCN(Cc2ccc3c(c2)OCO3)CC1 | -4%
COc1ccc(Cl)cc1NC(=O)CN(C)C(=O)C12CC3CC(CC(Cl)(C3)C1)C2 | 1%
C/C(=N\NC(=O)c1nnn(-c2nonc2N)c1C(C)C)c1ccc2ccccc2c1 | -10%
CCC1CCCCN1CCNC(=O)C1CCN(S(=O)(=O)c2c(C)noc2C)CC1 (configuration not stated) | 4%
CC1Sc2ccc(C(=O)Nc3cc(S(C)(=O)=O)ccc3Cl)cc2NC1=O (configuration not stated) | 3%
COc1ccc(C(=O)Nc2c(N)nc(SCC(=O)Nc3ccc(NC(C)=O)cc3)[nH]c2=O)cc1OC | 6%
COc1ccccc1N1CCN(CCCNC(=O)c2cnn(-c3ccccc3Cl)c2C2CCN(C(=O)OC(C)(C)C)CC2)CC1 | -2%
COc1ccc(CN(C(=O)CN2C(=O)c3ccccc3S2(=O)=O)C(C(=O)NCC2CCCO2)c2ccncc2)cc1 (configuration not stated) | -5%
Cc1ccc(S(=O)(=O)N2CCN(C)CC2)c(C)c1 | -4%
COc1ccc(CC(=O)NCc2ccc(-n3cccc3)cc2)cc1OC | -13%
COc1ccc(Oc2nc(C)cc(C)c2S(=O)(=O)c2ccc(C)cc2)cc1 | -19%
COc1ccc(OCC(=O)Nc2ccc3c(c2)N(C)C(=O)c2ccccc2S3)cc1 | 4%
C(=N\NC1=Nc2cccc3cccc1c23)/c1cccnc1 | 6%
CCCCN(CCCNC(=O)C1CCCN(S(=O)(=O)CCC)C1)Cc1ccccc1 (configuration not stated) | 2%
Cc1cccc(C)c1NC(=O)N1CCC(c2nc3ccccc3o2)CC1 | -8%
CC1CCN(S(=O)(=O)c2ccc3c(ccn3CCC(=O)NCc3ccccc3F)c2)CC1 | -4%
CC(=O)OC/C=C(\C)CC/C=C(\C)CC/C=C(\C)CC/C=C(\C)CC/C=C(\C)CC/C=C(\C)CC/C=C(\C)CC/C=C(\C)CCC=C(C)C | 11%

Further entries
SMILES | VDR inhibitor
CCCC(=O)n1nc(-c2cccnc2)nc1NCc1ccccc1 | 1%&20%
CC(C)c1ccc(NC(=O)c2cc3c(=O)[nH]c4ccccc4c3n2C)cc1 | -24%
CCCOc1cccc(C(=O)Nc2ccc(-c3nc4ccccc4o3)cc2)c1 | -5%
Cc1ccc(NC(=O)C[n+]2ccccc2)cc1[N+](=O)[O-] | -15%
O=C(COc1ccc2ccc(=O)oc2c1)Nc1ccc(N2CCOCC2)cc1 | -13%
O=S(=O)(c1ccc(Oc2ccc3oc4ccccc4c3c2)nc1)N1CCCC1 | -14%
Cc1ccc(NC(=O)C(C)c2ccc(-c3ccccc3)c(F)c2)cc1 (configuration not stated) | 5%
COc1ccc(-c2oc3ncn4nc(-c5ccccc5O)nc4c3c2-c2ccc(OC)cc2)cc1 | 7%
COc1ccc(/C=C2\SC(=S)N(C(C(=O)O)c3ccccc3)C2=O)c(OC)c1 (configuration not stated) | ?
CN1CCc2c(sc(NC(=O)Cc3ccccc3)c2C#N)C1 | -11%
Cc1ccc(S(=O)(=O)N2CCCc3cc(NS(=O)(=O)c4ccc(F)cc4)ccc32)cc1 | 9%
Cc1cc(C(=O)COC(=O)Cc2n[nH]c(=O)c3ccccc23)c(C)n1-c1ccc2c(c1)OCCO2 | 11%
COc1ccc(C(C)NC(=O)Cc2cccs2)cc1 (configuration not stated) | 3%
Cc1cccc(C(=O)Nc2ccccc2C(=O)NCc2ccco2)c1 | -4%
Cc1ccc(N2CCN(C(=O)C3CCC(CNS(=O)(=O)c4ccc(Br)s4)CC3)CC2C)cc1 (configuration not stated) | -7%
Cc1ccccc1/C(N)=N/O | 3%
CCOc1ccc(Oc2nc(NC)nc(N3CCOCC3)n2)nn1 | -4%
Cc1ccc2nc(CN3CCN(C(=O)Nc4ccc(F)cc4)CC3)oc2c1 | 3%
COC(=O)c1scc(-c2ccc(C)cc2)c1S(=O)(=O)N1CCN(c2ccc(C)cc2C)CC1 | 5%
Cc1cc2nc(N)sc2cc1C | 14%
NC(=O)CSc1oc(-c2ccc(F)cc2)nc1S(=O)(=O)c1ccccc1 | -5%
O=C1OCc2cccc([N+](=O)[O-])c21 | -12%
COC(=O)c1sccc1S(=O)(=O)Nc1ccc(C)cc1 | ?
COc1ccc(Cn2c(CCC(=O)Nc3cc(C)cc(C)c3)nc3cccnc32)cc1 | -11%
CC(=O)c1cccc(NC(=S)NC(=O)c2ccccc2)c1 | 3%

Two records drawn at random from the list so far, as already listed:
SMILES | VDR inhibitor
O=C(COc1ccc2ccc(=O)oc2c1)Nc1ccc(N2CCOCC2)cc1 | -13%
CC(=O)c1cccc(NC(=S)NC(=O)c2ccccc2)c1 | 3%

Next part:
SMILES | VDR inhibitor
Cc1ccc(C)c(OCC(=O)NCCNC(=O)COc2cc(C)ccc2C)c1 | 1%
CCOC(=O)N1CCN(S(=O)(=O)c2cc(C)c(C)cc2C)CC1 | 18%
OCCOCCNc1ncnc2sc(-c3ccccc3)cc12 | 6%
C[C@@H]1CN([C@H](C)CO)C(=O)c2cc(NC(=O)Cc3cn(C)c4ccccc34)ccc2O[C@H]1CN(C)C(=O)Nc1ccc2c(c1)OCO2 | -5%
COc1ccc(N2C(=O)C3C(c4ccc(C(=O)O)cc4)NC(Cc4ccccc4)(C(=O)O)C3C2=O)c([N+](=O)[O-])c1 (configuration not stated) | 5%
CSc1nsc(/C=C/Nc2cccc(Cl)c2)c1C#N | 7%
CCCc1n[nH]c(=O)c2c1nnn2Cc1ccccc1 | -17%
O=C(NCCc1ccc(Cl)cc1)c1ccc2c(c1)N(Cc1c(F)cccc1Cl)C(=O)CS2 | 2%
Cc1cccc(C)c1Nc1nc2ccccc2nc1NS(=O)(=O)c1ccccc1 | ?
Cc1[nH]c(C)c(S(=O)(=O)N2CCN(c3ccccc3)CC2)c1C(=O)N1CCCC1 | -21%
CCN1CCCC1CN(Cc1cc2ccc(C)cc2[nH]c1=O)C(=S)Nc1ccccc1OC (configuration not stated) | 3%
CC(=O)Nc1ccc(/C=C2\Sc3ccccc3C2=O)cc1 | -12%
O=C(O)c1ccc(O)cc1O | -10%
COCCCN1C(=O)C(=O)/C(=C(/O)c2ccc(OC(C)C)cc2)C1c1ccncc1 (configuration not stated) | -4%
CC(C)C[C@H]1CN=C(Nc2ccccc2)N1CC1CCCCC1 | -26%
C=C1SC(=Nc2c(C)cccc2Cl)N(C(=O)c2sc3ccccc3c2Cl)C12CCCCC2 | -4%
N[C@H](C(=O)O)[C@H](Cc1ccccc1)C(=O)O | 6%
CCc1noc(C)c1C(=O)NNC(=O)c1nn(C)c(=O)c2ccccc12 | 12%
Cc1ccc(NC(=O)C2CCN(c3nc(-c4ccc(C(C)C)cc4)no3)CC2)c(Cl)c1 | 3%
O=C(COC(=O)c1cccc(Br)c1)NCc1ccco1 | 3%
Cc1nc2ccccc2c(=O)n1NC(=O)c1ccccc1 | -1%
CCc1cc(=O)oc2cc(C)cc(OC(C)C(=O)NC(Cc3c[nH]c4ccc(O)cc34)C(=O)O)c12 (configuration not stated) | -6%
CC1CCCCN1C(=S)NCc1ccco1 (configuration not stated) | 4%
CCCCCCCCNC(=O)/C(C#N)=C/c1ccccc1[N+](=O)[O-] | ?
COC(=O)c1cc(OC)nc2c1c(=O)n(C)c(=O)n2C | -6%

(more compounds)
SMILES | VDR inhibitor
CC(=O)Nc1ccc(NC(=O)C2CCCN2S(=O)(=O)c2ccc3c(c2)CCCC(=O)N3)cc1 (configuration not stated) | 5%
Cc1ccc(P(=O)(CO)c2ccc(C)cc2)cc1 | -6%
O=C(COc1ncnc2ccccc12)NCC1CCCO1 (configuration not stated) | -1%
CC(=O)Nc1ccc(S(=O)(=O)NC2CC(=O)N(c3cccc(F)c3)C2)cc1 (configuration not stated) | 13%
CCC(C(=O)Nc1nccs1)(C(F)(F)F)C(F)(F)F | 18%
COc1ccc(C(=O)OCC(=O)Nc2cc(C)on2)cc1S(=O)(=O)N1CCOCC1 | -9%
Cc1nc(C)n(CC(O)COc2ccc3cc(Br)ccc3c2)n1 (configuration not stated) | -8%
O=C(Nc1ccc2ccccc2n1)c1ccc(Cl)cc1 | -3%
COc1cc(C(=O)N2CCCc3ccccc32)c([N+](=O)[O-])cc1OC | -4%
COCCn1c(SCC(=O)Nc2ccccc2)nc2c1c(=O)[nH]c(=O)n2C | -12%
O=C(Nc1ccon1)c1cccc(S(=O)(=O)N2CCCC2)c1 | -9%
Cn1nccc1C(=O)NC1CC(C)(C)Cc2c1cnn2-c1ccc(F)cc1 (configuration not stated) | -1%
O=C1/C(=C/c2cccs2)SC(=S)N1NS(=O)(=O)c1ccccc1 | 4%
CC1CCC2(CC1)NC(=O)N(CC(=O)Nc1ccc3c(c1)OCO3)C2=O (configuration not stated) | -15%
Cc1nc(SCc2ccc(C#N)cc2)n[nH]1 | 2%
C=CCSc1nnc(-c2cc3c(C(F)(F)F)nn(C)c3s2)n1C | 19%
Cc1nn(C)cc1C(=O)c1ccccc1 | 14%
CCOC(=O)c1noc2nc(C)n(CC(=O)Nc3ccc(OC)c(Cl)c3)c(=O)c12 | 3%
CC(=O)Nc1cc(C(=O)N(C)Cc2ccco2)ccc1Sc1ccc(C)cc1 | 0%
O=C(NC1C/C=C\C(c2ccccc2)N(c2ccccc2)C(=O)C1)OCC1c2ccccc2-c2ccccc21 (configuration not stated) | -11%
CC(=O)c1c(C)[nH]c(C(=O)COC(=O)c2ccc(Cl)nc2)c1C | 6%
O=C(c1cccs1)N1CCCC(c2ccccc2)C1 (configuration not stated) | -11%
O=C(O)CC(NC(=O)c1ccccc1NC(=O)c1ccccc1)C(=O)O (configuration not stated) | 0%
CC(=O)Nc1ccc(C(=O)Cn2c3[n+](c4c(F)c(F)ccc42)CCCCC3)cc1 | -9%
O=c1cc(CSc2nnc(-c3ccccc3)o2)c2ccccc2[nH]1 | -12%

(continued)
SMILES | VDR inhibitor
O=C(CSc1nc(O)c(C2CCCCC2)c(=O)[nH]1)N1CCOCC1 | -5%
Cc1csc(NC(=O)C2CCN(S(=O)(=O)c3ccccc3)CC2)n1 | 12%
CCc1cccc(C)c1NS(=O)(=O)c1c(C)nc2sccn2c1=O | 4%&6%
NNc1ccccc1C(F)(F)F | -7%
CCOC(=O)C1CCN(C(=O)COC(=O)COc2ccccc2OC)CC1 | 3%
O=[N+]([O-])c1ccccc1S(=O)(=O)NC1CCCC1 | 12%
COc1ccc(CCNS(=O)(=O)c2cc3c4c(c2)CC(=O)N4CCC3)cc1 | -7%
C/C(Cl)=C\Cn1c(O)c(N=NC(N)=S)c2ccccc21 | -5%
Cc1ccc2nc(C3CCCN(C(=O)NCc4ccccc4)C3)[nH]c2c1 (configuration not stated) | -12%
CCOc1cc(N2CCOCC2)c(OCC)cc1NC(=O)COC(=O)c1cc(C)cc(C)c1 | -10%
c1ccc(-c2ccc3sccc3n2)cc1 | -21%
O=C(NCCc1nnc2ccc(SCC(=O)N3CCCC3)nn12)c1ccc(F)cc1 | -9%
S=C1NCC(c2ccccc2)S1 (configuration not stated) | 3%
Cc1ccc(NC(=O)C2CC3CCC2C3)c(Br)c1 (configuration not stated) | -12%
O=C(Cc1cccc(NC(=O)C2CCN(S(=O)(=O)c3cccc([N+](=O)[O-])c3)CC2)c1)Nc1cccc(C(=O)N2CCCCC2)c1 | -25%
S=C(NCCNC(=S)Nc1ccccc1)Nc1ccccc1 | 2%
CC1(c2ccc3ccccc3c2)NC(=O)N(CC(=O)N2CCCC(C(F)(F)F)C2)C1=O (configuration not stated) | 4%

In the list so far, these contain fluorine:
SMILES | VDR inhibitor
Fc1ccccc1NC(=S)N1CCN(Cc2ccc3c(c2)OCO3)CC1 | -4%
CC1CCN(S(=O)(=O)c2ccc3c(ccn3CCC(=O)NCc3ccccc3F)c2)CC1 | -4%
Cc1ccc(NC(=O)C(C)c2ccc(-c3ccccc3)c(F)c2)cc1 (configuration not stated) | 5%
Cc1ccc(S(=O)(=O)N2CCCc3cc(NS(=O)(=O)c4ccc(F)cc4)ccc32)cc1 | 9%
Cc1ccc2nc(CN3CCN(C(=O)Nc4ccc(F)cc4)CC3)oc2c1 | 3%
NC(=O)CSc1oc(-c2ccc(F)cc2)nc1S(=O)(=O)c1ccccc1 | -5%
O=C(NCCc1ccc(Cl)cc1)c1ccc2c(c1)N(Cc1c(F)cccc1Cl)C(=O)CS2 | 2%
CC(=O)Nc1ccc(S(=O)(=O)NC2CC(=O)N(c3cccc(F)c3)C2)cc1 (configuration not stated) | 13%
CCC(C(=O)Nc1nccs1)(C(F)(F)F)C(F)(F)F | 18%
Cn1nccc1C(=O)NC1CC(C)(C)Cc2c1cnn2-c1ccc(F)cc1 (configuration not stated) | -1%
C=CCSc1nnc(-c2cc3c(C(F)(F)F)nn(C)c3s2)n1C | 19%
CC(=O)Nc1ccc(C(=O)Cn2c3[n+](c4c(F)c(F)ccc42)CCCCC3)cc1 | -9%
NNc1ccccc1C(F)(F)F | -7%
O=C(NCCc1nnc2ccc(SCC(=O)N3CCCC3)nn12)c1ccc(F)cc1 | -9%
CC1(c2ccc3ccccc3c2)NC(=O)N(CC(=O)N2CCCC(C(F)(F)F)C2)C1=O (configuration not stated) | 4%

Only part of the results is shown. The share of hits here may be higher or lower than overall.
